# Compound activity (PubChem)
# EPAC1 agonist – Validation qHTS for agonist of cAMP-regulated guanine nucleotide exchange factor 3 (EPAC1); EPAC1 Rap1b BODIPY-GDP exchange, fluorescence; Rap guanine nucleotide exchange factor 3 (Homo sapiens), O95398; actives 1% (n = 16,000); Potency, µM, for inactives: max response, positive = active, most hits filed as activators; active = well fitted activation curve with a large enough effect; inconclusive = small, poorly fitted or top-dose-only effect; inactive = no such curve, though single readings can be large or run the other way;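 note: nearly all actives have a fitted effect of over 70% in size; series mostly up to about 76 or 150 µM; scaled to a cAMP control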
# Target sequence (O95398 whole entry, looked up): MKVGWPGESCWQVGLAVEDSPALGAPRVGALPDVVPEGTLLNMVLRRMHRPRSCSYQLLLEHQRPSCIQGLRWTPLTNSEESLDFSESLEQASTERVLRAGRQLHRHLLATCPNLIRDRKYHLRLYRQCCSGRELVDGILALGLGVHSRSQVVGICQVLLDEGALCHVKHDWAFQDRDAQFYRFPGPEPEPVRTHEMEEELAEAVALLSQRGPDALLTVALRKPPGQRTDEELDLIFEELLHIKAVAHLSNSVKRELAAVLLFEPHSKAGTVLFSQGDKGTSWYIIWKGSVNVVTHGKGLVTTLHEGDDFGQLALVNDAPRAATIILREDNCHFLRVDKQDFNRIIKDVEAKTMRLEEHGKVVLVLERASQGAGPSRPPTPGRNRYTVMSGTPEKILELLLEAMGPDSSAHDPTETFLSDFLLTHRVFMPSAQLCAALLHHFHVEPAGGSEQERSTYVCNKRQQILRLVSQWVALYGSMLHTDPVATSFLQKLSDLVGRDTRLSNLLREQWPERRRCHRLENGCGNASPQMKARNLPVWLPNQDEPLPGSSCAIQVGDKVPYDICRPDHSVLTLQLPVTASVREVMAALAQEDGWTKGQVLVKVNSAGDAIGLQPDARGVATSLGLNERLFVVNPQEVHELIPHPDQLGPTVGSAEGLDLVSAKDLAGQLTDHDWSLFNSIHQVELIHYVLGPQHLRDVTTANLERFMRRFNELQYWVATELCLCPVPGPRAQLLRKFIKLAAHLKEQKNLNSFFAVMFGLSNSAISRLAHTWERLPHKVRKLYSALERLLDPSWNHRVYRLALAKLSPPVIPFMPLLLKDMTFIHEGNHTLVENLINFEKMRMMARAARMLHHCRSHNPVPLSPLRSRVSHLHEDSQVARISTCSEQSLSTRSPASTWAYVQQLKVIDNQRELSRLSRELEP
# An asterisk follows results filed as active; ? = inconclusive; & = joins results of further samples; [ ] = another dose, or the depositor's remark. % is set by controls: 0 for no effect and ±100 for the full control effect; potency is the fitted concentration of half-maximal effect. Only part of the results is shown. The share of hits here may be higher or lower than overall.
smiles | EPAC1 agonist
NS(=O)(=O)c1cc2c(cc1C(F)(F)F)NC(Cc1ccccc1)NS2(=O)=O (configuration not stated) | 17%&21%
CCCOc1ccccc1-c1nc2n[nH]nc2c(=O)[nH]1 | ?
CCOC(=O)[C@H](CCc1ccccc1)N[C@@H](C)C(=O)N(CC(=O)O)C1Cc2ccccc2C1 | -6%
CCN(CC)C[C@@H]1CCCCN1CC(=O)N1c2ccccc2C(=O)Nc2cccnc21 | -18%
NC(=O)n1c(O)c(C(=O)c2cccs2)c2cc(Cl)ccc21 | 1%
O=C1NCC2(CCN(CCc3ccccc3)CC2)O1 | ?
COc1cc2nc(N3CCN(C(=O)C4COc5ccccc5O4)CC3)nc(N)c2cc1OC (configuration not stated) | 11%&-3%
COc1cc(Nc2c(C#N)cnc3cc(OCCCN4CCN(C)CC4)c(OC)cc23)c(Cl)cc1Cl | 10%
CCCCCC(=O)O[C@@]1(C(C)=O)CCC2C3CCC4=CC(=O)CC[C@@]4(C)C3CC[C@]21C (some centres not stated) | ?
COc1nc(C)nc(Cl)c1NC1=NCCN1 | -4%&-5%
CC[C@H]1OC(=O)C[C@@H](O)[C@H](C)[C@@H](O[C@@H]2O[C@H](C)[C@@H](O)[C@H](N(C)C)[C@H]2O)[C@@H](CCN2C[C@H](C)C[C@H](C)C2)C[C@@H](C)C(=O)/C=C/C(C)=C/[C@@H]1CO[C@@H]1O[C@H](C)[C@@H](O)[C@@H](OC)[C@H]1OC | -29%
O=C(Nc1ccc(Cl)cc1)Nc1ccc(Cl)c(C(F)(F)F)c1 | ?
Nc1nccs1 | -5%
O=C1NC(=O)[C@@]2(CCOc3ccc(F)cc32)N1 | 29%
CC[C@]1(O)C[C@@H]2CN(CCc3c([nH]c4ccccc34)[C@@](C(=O)OC)(c3cc4c(cc3OC)N(C)C3[C@]45CCN4CC=C[C@](CC)(C45)[C@@H](OC(C)=O)[C@]3(O)C(=O)OC)C2)C1 (some centres not stated) | -4%
Cc1nnc(NS(=O)(=O)c2ccc(N)cc2)s1 | ?
CCN(CC)CCOc1ccccc1C(=O)CCc1ccccc1 | -6%
O=c1cc(-c2ccc(O)cc2)oc2cc(O)ccc12 | -21%
O=C(O)COC(=O)Cc1ccccc1Nc1c(Cl)cccc1Cl | -2%
CC(=O)[C@H]1CC[C@H]2[C@@H]3C[C@H](C)C4=CC(=O)CC[C@]4(C)[C@H]3[C@@H](O)C[C@]12C | -7%
CCNC(=O)/C=C/c1cccc(Br)c1 | 8%
CCCCCCC/C=C\CCCCCCCCC(=O)O | -26%
COc1cc(N)c(Cl)cc1C(=O)NC1CCN(CCCOc2ccc(F)cc2)CC1OC (configuration not stated) | -32%[inhibitor]
Cc1onc(-c2ccccc2Cl)c1C(=O)N[C@@H]1C(=O)N2[C@@H]1SC(C)(C)[C@@H]2C(=O)O | -28%
c1ccc2c(CC3=NCCN3)cccc2c1 | 2%&5%&6%&-10%&-12%
O=c1cc[nH]c(=O)[nH]1 | -17%
CCCC(=O)O | -4%
Nc1ccc(C(=O)Nc2ccccc2N)cc1 | 0%
CCCOC(=O)c1ccccc1 | -6%
O=C(O)CN1C(=O)c2cccc3cccc(c23)C1=O | -16%&-20%
O=C(O)[C@@H]1[C@H]2C[C@H]3c4[nH]c5ccccc5c4CCN3C[C@@H]2CC[C@@H]1O | 11%
CC(C)Cc1ccc([C@H](C)C(=O)O)cc1 | -2%&18%
C[C@]12CC[C@H]3[C@@H](CCC4=CC(=O)CC[C@@]43C)[C@@H]1CC[C@@H]2C(=O)CO | 3%
Nc1cc(-c2ccncc2)c[nH]c1=O | ?
C#C[C@]1(OC(C)=O)CC[C@H]2[C@@H]3CCC4=C/C(=N/O)CC[C@@H]4[C@H]3CC[C@@]21CC | 28%
CN(C)C/C=C(/c1ccc(Br)cc1)c1cccnc1 | 10%&0%
CC(=O)NCCCCCC(=O)O | 27%
C[C@H]1[C@H](C)CC[C@]2(C(=O)O)CC[C@]3(C)C(=CCC4[C@@]5(C)C[C@@H](O)[C@H](O)[C@@](C)(CO)[C@@H]5CC[C@]43C)[C@H]12 (some centres not stated) | -49%[inhibitor]
O=C(O)[C@@H](O)[C@H](O)[C@H](O)[C@@H](O)C(=O)O | 9%
CN1CCC(=C2c3ccccc3CCc3sccc32)CC1 | -14%&-37%
CC(C)Cc1ccc(C(C)C(=O)O)cc1 (configuration not stated) | -4%&3%&-19%
CC1=NN(c2ccccc2)C(=O)C1 | ?
C=CCN1C(=O)C(CC(C)C)NC1=S (configuration not stated) | -27%&1%
CC(=O)N1C[C@H](O)C[C@H]1C(=O)O | 6%
O=C(Cn1ccnc1[N+](=O)[O-])NCCO | 12%
CC(C)Cn1cnc2c1c(=O)n(C)c(=O)n2C | -2%
CCN(CC)C(=O)Nc1ccc(OCC(O)CNC(C)(C)C)c(C(C)=O)c1 (configuration not stated) | -48%[inhibitor]
COc1ccc(CN(CCN(C)C)c2ccccn2)cc1 | 1%&-6%&-13%&2%
COC(=O)c1cccnc1 | -2%
N/C(=N\N=C\c1ccc(Cl)cc1)N/N=C/c1ccc(Cl)cc1 | 7%
O=S(=O)(O)c1ccc2nc(-c3ccccc3)[nH]c2c1 | 4%
O=C1N(c2ccccc2)c2ccccc2C1(Cc1ccncc1)Cc1ccncc1 | -5%&-17%&-1%
COc1cccc(CCc2ccccc2OCC(CN(C)C)OC(=O)CCC(=O)O)c1 (configuration not stated) | -16%
CCCSS/C(CCO)=C(\C)N(C=O)Cc1cnc(C)nc1N | 10%
COc1ccccc1OCC(O)COC(N)=O (configuration not stated) | -4%&6%
Cc1cc2c(s1)Nc1ccccc1N=C2N1CCN(C)CC1 | -42%&-24%[inhibitor]
CC(C)[C@@H]1CC[C@@H](C)C[C@H]1OC(=O)c1ccccc1O | -6%
Cc1c(C(=O)O)c(O)cc2c1C(=O)c1c(O)c([C@H]3O[C@H](CO)[C@@H](O)[C@H](O)[C@H]3O)c(O)c(O)c1C2=O | -18%
C[C@]12CC3CC(N)(C1)C[C@@](C)(C3)C2 | 7%
Cc1ccccc1N=Nc1ccc(N=Nc2c(O)ccc3ccccc23)c(C)c1 | -26%

structure: CC1c2ccccc2CN1NC(=O)c1ccc(Cl)c(S(N)(=O)=O)c1 (configuration not stated)
  EPAC1 agonist = 5%
structure: Cc1coc2c1C(=O)C(=O)c1c-2ccc2c1CCCC2(C)C
  EPAC1 agonist = -47%&-6%&23%[inhibitor]
structure: CCCCCCCC/C=C\CCCCCCCCN
  EPAC1 agonist = -19%
structure: OC1(c2ccc(Cl)c(C(F)(F)F)c2)CCN(CCCC(c2ccc(F)cc2)c2ccc(F)cc2)CC1
  EPAC1 agonist = -29%
structure: CC(=O)c1ccc(OCC(=O)N2CCCCC2)cc1
  EPAC1 agonist = -11%
structure: C=CCSCC=C
  EPAC1 agonist = 13%
structure: N=C(N=C(N)N)N1CCOCC1
  EPAC1 agonist = -16%
structure: Cc1onc(-c2ccccc2Cl)c1C(=O)NC1C(=O)N2C1SC(C)(C)C2C(=O)O (configuration not stated)
  EPAC1 agonist = -23%
structure: CCCC(NC(C)C(=O)N1C(C(=O)O)CC2CCCCC21)C(=O)OCC (configuration not stated)
  EPAC1 agonist = -43%[inhibitor]
structure: CC(=O)O[C@]1(C(C)=O)CC[C@H]2[C@@H]3C=C(Cl)C4=CC(=O)[C@@H]5C[C@@H]5[C@]4(C)[C@H]3CC[C@@]21C
  EPAC1 agonist = -4%&-23%
structure: CN(C)CCCN1c2ccccc2Sc2ccccc21
  EPAC1 agonist = 15%&-38%&-10%
structure: C=CC(C)(O)CC/C=C(\C)CCC=C(C)C (configuration not stated)
  EPAC1 agonist = -151%[inhibitor]
structure: CN(C)CCCSc1ccccc1NC(=O)/C=C\c1ccccc1
  EPAC1 agonist = -7%

# Not a retest: 30 of the compounds above.
structure: C=CCN1C(=O)C(CC(C)C)NC1=S (configuration not stated)
  EPAC1 agonist = -27%&1%
structure: CC(=O)N1C[C@H](O)C[C@H]1C(=O)O
  EPAC1 agonist = 6%
structure: O=C(Cn1ccnc1[N+](=O)[O-])NCCO
  EPAC1 agonist = 12%
structure: CC(C)Cn1cnc2c1c(=O)n(C)c(=O)n2C
  EPAC1 agonist = -2%
structure: CCN(CC)C(=O)Nc1ccc(OCC(O)CNC(C)(C)C)c(C(C)=O)c1 (configuration not stated)
  EPAC1 agonist = -48%[inhibitor]
structure: COc1ccc(CN(CCN(C)C)c2ccccn2)cc1
  EPAC1 agonist = 1%&-6%&-13%&2%
structure: COC(=O)c1cccnc1
  EPAC1 agonist = -2%
structure: N/C(=N\N=C\c1ccc(Cl)cc1)N/N=C/c1ccc(Cl)cc1
  EPAC1 agonist = 7%
structure: O=S(=O)(O)c1ccc2nc(-c3ccccc3)[nH]c2c1
  EPAC1 agonist = 4%
structure: O=C1N(c2ccccc2)c2ccccc2C1(Cc1ccncc1)Cc1ccncc1
  EPAC1 agonist = -5%&-17%&-1%
structure: COc1cccc(CCc2ccccc2OCC(CN(C)C)OC(=O)CCC(=O)O)c1 (configuration not stated)
  EPAC1 agonist = -16%
structure: CCCSS/C(CCO)=C(\C)N(C=O)Cc1cnc(C)nc1N
  EPAC1 agonist = 10%
structure: COc1ccccc1OCC(O)COC(N)=O (configuration not stated)
  EPAC1 agonist = -4%&6%
structure: Cc1cc2c(s1)Nc1ccccc1N=C2N1CCN(C)CC1
  EPAC1 agonist = -42%&-24%[inhibitor]
structure: CC(C)[C@@H]1CC[C@@H](C)C[C@H]1OC(=O)c1ccccc1O
  EPAC1 agonist = -6%
structure: Cc1c(C(=O)O)c(O)cc2c1C(=O)c1c(O)c([C@H]3O[C@H](CO)[C@@H](O)[C@H](O)[C@H]3O)c(O)c(O)c1C2=O
  EPAC1 agonist = -18%
structure: C[C@]12CC3CC(N)(C1)C[C@@](C)(C3)C2
  EPAC1 agonist = 7%
structure: Cc1ccccc1N=Nc1ccc(N=Nc2c(O)ccc3ccccc23)c(C)c1
  EPAC1 agonist = -26%
structure: CC1c2ccccc2CN1NC(=O)c1ccc(Cl)c(S(N)(=O)=O)c1 (configuration not stated)
  EPAC1 agonist = 5%
structure: Cc1coc2c1C(=O)C(=O)c1c-2ccc2c1CCCC2(C)C
  EPAC1 agonist = -47%&-6%&23%[inhibitor]
structure: CCCCCCCC/C=C\CCCCCCCCN
  EPAC1 agonist = -19%
structure: OC1(c2ccc(Cl)c(C(F)(F)F)c2)CCN(CCCC(c2ccc(F)cc2)c2ccc(F)cc2)CC1
  EPAC1 agonist = -29%
structure: CC(=O)c1ccc(OCC(=O)N2CCCCC2)cc1
  EPAC1 agonist = -11%
structure: C=CCSCC=C
  EPAC1 agonist = 13%
structure: N=C(N=C(N)N)N1CCOCC1
  EPAC1 agonist = -16%
structure: Cc1onc(-c2ccccc2Cl)c1C(=O)NC1C(=O)N2C1SC(C)(C)C2C(=O)O (configuration not stated)
  EPAC1 agonist = -23%
structure: CCCC(NC(C)C(=O)N1C(C(=O)O)CC2CCCCC21)C(=O)OCC (configuration not stated)
  EPAC1 agonist = -43%[inhibitor]
structure: CC(=O)O[C@]1(C(C)=O)CC[C@H]2[C@@H]3C=C(Cl)C4=CC(=O)[C@@H]5C[C@@H]5[C@]4(C)[C@H]3CC[C@@]21C
  EPAC1 agonist = -4%&-23%
structure: CN(C)CCCN1c2ccccc2Sc2ccccc21
  EPAC1 agonist = 15%&-38%&-10%
structure: C=CC(C)(O)CC/C=C(\C)CCC=C(C)C (configuration not stated)
  EPAC1 agonist = -151%[inhibitor]
